# Screening data: PubChem, several laboratories
# Mtb growth = M. tuberculosis H37Rv growth inhibitors, H37Rv strain (AID 1626) | M. tuberculosis H37Rv growth inhibition; higher % means a stronger effect | one-dose inhibition, % at 10 µM; IC50 in µM for titrated hits | 220,000 compounds, 0.95% hits;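 active = confirmed in a dose series; inconclusive = inhibition above 80% but not taken into the dose series; inactive = below 80% or under 30% at every dose of the series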;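 also: bacteria incubated seven days before Alamar blue readout; 0% = bacteria only wells and 100% = bacteria with antibiotic wells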
# Mtb bLac sens = beta-lactam sensitization of Mtb H37Rv | M. tuberculosis H37Rv growth with meropenem, percent inhibition; hits of this screen are not shown here | inhibition, % at 25 µM | 330,000 compounds, 0.27% hits | AID 434955;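 active = about 74% or more and at least 40 points above the plate without the antibiotic, then above 30% in a dose series; inconclusive = first-round hits that could not be retested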;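 also: growth measured after seven days incubation then overnight dye step; 0% = bacteria only wells and 100% = bacteria with antibiotic; twin plates without the antibiotic show which effects depend on it; some results filed as inactive read as strong as hits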
# Arbovirus inh = blocks arbovirus infection. arbovirus infection cell-based antiviral screen. inhibition, % at 10 µM. 200,000 compounds, 0.37% hits;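 active = inhibition from about 30%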;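 also: bluetongue infection of BSR cells; cell survival read as ATP light after 72 h; 0% = infected wells without compound and 100% = uninfected wells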
# YopH PTP inh = inhibitors of Yersinia enterocolitica YopH tyrosine phosphatase; AID 898; fluorescence Ex485/Em525; inhibition, %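 (about 10 µM by stock and volumes)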; 140,000 compounds, 0.16% hits;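 active = inhibition of 50% or more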;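 also: controls were vehicle for no effect and minimum signal wells for full effect; inactives centre near -20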
# RecA splice inh = blocks M. tuberculosis RecA intein splicing. P9WHJ3. cell-free RecA intein splicing, fluorescence. inhibition, %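 (about 9 µM by stock and volumes)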. 290,000 compounds, 0.75% hits. AID 2221; in the data active = inhibition above about 30%; inconclusive = no clear call, values can overlap the other calls;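 also: 0% = vehicle wells and 100% = reference inhibitor control wells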
# Target sequence (P9WHJ3 whole entry, looked up, canonical isoform): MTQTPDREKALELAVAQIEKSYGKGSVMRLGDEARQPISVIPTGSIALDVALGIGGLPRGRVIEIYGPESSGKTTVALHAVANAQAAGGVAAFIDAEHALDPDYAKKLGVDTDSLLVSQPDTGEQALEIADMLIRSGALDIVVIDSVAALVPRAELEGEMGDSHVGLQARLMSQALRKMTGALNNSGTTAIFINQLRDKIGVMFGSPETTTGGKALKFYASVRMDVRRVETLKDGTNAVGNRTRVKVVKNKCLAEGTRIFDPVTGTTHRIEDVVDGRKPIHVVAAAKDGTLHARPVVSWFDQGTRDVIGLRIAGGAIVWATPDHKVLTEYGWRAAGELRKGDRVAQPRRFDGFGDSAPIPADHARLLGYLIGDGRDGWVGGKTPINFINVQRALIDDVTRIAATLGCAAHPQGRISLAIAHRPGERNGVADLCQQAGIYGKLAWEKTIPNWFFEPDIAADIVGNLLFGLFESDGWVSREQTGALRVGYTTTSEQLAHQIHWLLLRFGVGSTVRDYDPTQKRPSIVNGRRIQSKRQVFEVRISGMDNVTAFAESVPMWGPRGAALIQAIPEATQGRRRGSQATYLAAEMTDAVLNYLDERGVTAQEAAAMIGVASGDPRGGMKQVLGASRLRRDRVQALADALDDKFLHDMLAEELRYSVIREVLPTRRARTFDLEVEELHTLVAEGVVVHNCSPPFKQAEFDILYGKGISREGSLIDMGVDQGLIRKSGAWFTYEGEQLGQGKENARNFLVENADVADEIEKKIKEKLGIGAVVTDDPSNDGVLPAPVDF
# Arbovirus inh repeat = also measured in Arbovirus inh; calls as there; inhibition, %; measured here: 10K subset replicate screen; many hits read low in the repeat;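 first of two repeat runs on a subset; 0% = infected and 100% = uninfected wells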
# Starred values were filed as active, the others as inactive; ? = inconclusive; / = no result given. The list is partial; rates above refer to the full screens.
# The opening 5 records, ahead of the listing:
SMILES,Mtb growth,Mtb bLac sens,Arbovirus inh,YopH PTP inh,RecA splice inh,others
CN(c1ccc(OCC(=O)OCC(=O)Nc2ccccc2F)cc1)S(=O)(=O)c1cccs1,1%,-4,-7,-14,2.9,
NS(=O)(=O)c1ccc(NC(=O)c2ccc3nccnc3c2)cc1,-4%,-2,/,/,-2.7,
NCCOc1ccccc1Cc1ccccc1,-4%,-6,-2,-11,1.5,
COC1=C/C(=C/c2c(N)n3nc(CC(=O)N4CCOCC4)sc3nc2=O)C=CC1=O,/,-5,/,/,-1.4,
CCOC(=O)c1cnc2c(C(F)(F)F)cccc2c1N1CCOCC1,0%,6,-4,19,0.2,

# The list itself, from the first entry:
SMILES,Mtb growth,Mtb bLac sens,Arbovirus inh,YopH PTP inh,RecA splice inh,others
CN(c1ccc(OCC(=O)OCC(=O)Nc2ccccc2F)cc1)S(=O)(=O)c1cccs1,1%,-4,-7,-14,2.9,
NS(=O)(=O)c1ccc(NC(=O)c2ccc3nccnc3c2)cc1,-4%,-2,/,/,-2.7,
NCCOc1ccccc1Cc1ccccc1,-4%,-6,-2,-11,1.5,
COC1=C/C(=C/c2c(N)n3nc(CC(=O)N4CCOCC4)sc3nc2=O)C=CC1=O,/,-5,/,/,-1.4,
CCOC(=O)c1cnc2c(C(F)(F)F)cccc2c1N1CCOCC1,0%,6,-4,19,0.2,
COc1ccc(C(C)=O)cc1CSc1nc2ccccc2c(=O)n1-c1cccc(C)c1,7%,?,-32,-23,0.3,
Cc1c(C(=O)NC(=S)NCC(C)C)oc2ccccc12,-3%,7,6,-26,0.2,
COC(=O)c1ccc(-n2c(C)cc(-c3csc(NC(=O)c4ccc(S(=O)(=O)N(C)C)cc4)n3)c2C)cc1,2%,56,8,-6,-0.5,
COC(=O)c1c(C)[nH]c(C(=O)/C=C/c2ccccc2)c1C,1%,-4,-11,-15,-1.3,
CC(C(=O)NC1CCCC1)N(C(=O)Cn1nnc(-c2ccc(F)cc2)n1)c1ccccc1F (centres undefined),/,0,/,/,2.4,
Cc1cc(C)c(S(=O)(=O)c2cccc(C)c2C)c(=O)[nH]1,/,-7,/,/,-0.4,
CCS(=O)(=O)c1ccc2c(c1)N(S(C)(=O)=O)CC(C(=O)NCCOC)O2 (centres undefined),0%,1,0,-48,/,
O=C(NNC(=O)c1cc2cc3ccccc3nc2s1)c1cccc(Cl)c1,-7%,-1,-21,4,-0.9,
Cc1ccc(C(=O)OCc2cn(-c3ccccc3)nn2)cc1,5%,4,8,/,1.7,
Nc1ccc(C(=O)NC23CC4CC(CC(C4)C2)C3)cc1,/,-18,/,/,0.9,
COC(=O)c1sccc1-n1cccc1C(=O)C(=O)Nc1ccc(F)cc1,-1%,4,-5,/,2.6,
Cc1ccc(C(=O)NC(N(C)C)C(Cl)(Cl)Cl)cc1 (centres undefined),3%,-3,6,/,1.2,
CC(O)COc1ccc(/C(=N/O)c2ccccc2)cc1 (centres undefined),3%,5,7,-40,-1.1,
COc1ccc(C(=O)COC(=O)CCn2nnc(-c3cccc(O)c3OC)n2)cc1,6%,9,9,-11,2.3,
CC(C)(C)OC(=O)CNC(=O)c1[nH]cnc1C(=O)Nc1ccc(Cl)cc1,57%,-2,/,/,-3.5,
Cc1ccc(S(=O)(=O)NN2C(=O)c3ccccc3NC2c2ccccc2O)cc1 (centres undefined),0%,-9,20,/,-2.9,
NC(N)=NN=C1CCC(c2ccccc2)CC1 (centres undefined),/,-2,/,/,0.5,
CCOCCCNC(=O)CN1C(=O)COc2ccc(S(=O)(=O)N3CCCCCC3)cc21,/,-1,/,/,3.7,
CN1C(=O)/C(=C/c2ccccc2OCc2cccc(F)c2)NC1=S,15%,-2,-4,3,1.9,
CSC1=NCCN1C(=O)Cc1ccc(Cl)cc1,-2%,5,1,-50,0.4,Arbovirus inh repeat=5
# The listing continues.
SMILES,Mtb growth,Mtb bLac sens,Arbovirus inh,YopH PTP inh,RecA splice inh,others
CC(=O)Oc1c(-c2ccc(Br)o2)oc2ccccc2c1=O,/,96,/,/,-62,
C/C(=N/NC(=O)c1ccc2c(c1)OCO2)c1cccc([N+](=O)[O-])c1,/,-12,/,/,-0.3,
CCCc1c(C(=O)Nc2ccc(OC)cc2)cnn1-c1ccccc1,-1%,2,/,/,3.6,
Cc1c(F)cccc1NC(=O)CCCCCC1NC(=O)NC1C (centres undefined),-2%,-5,5,/,-0.6,
CCOc1ccc(NC(=O)Nc2cccn(Cc3ccccc3)c2=O)cc1,22%,6,-5,/,/,
C(=N\Nc1nc2ccccc2[nH]1)/c1ccc2c(c1)OCCO2,?,4,/,/,4.6,
COCc1nnc(NC(C)=O)s1,-5%,-7,1,/,-2.6,
C[C@H](NC(=O)c1nc[nH]c1C(=O)NC1CCNCC1)C(=O)OC(C)(C)C,/,-5,/,/,-0.3,
Cc1ccc(-n2c(=O)c3sccc3n(Cc3cc(=O)n4ccccc4n3)c2=O)cc1,5%,1,7,-26,-0.4,
O=C(O)c1ccc(/C=N/NC(=O)c2ccc(Br)cc2)cc1,7%,1,-8,-17,0.0,
O=C(Nc1ccccc1F)c1ccncc1,-7%,-1,0,-10,-0.4,
Cc1sc2nc(SCC(=O)NCCO)n(-c3ccccc3)c(=O)c2c1C,-7%,2,1,/,1.3,
C=CCn1c(SCC(=O)c2cc(C)n(C(C)COC)c2C)nc2sc(C)c(C)c2c1=O (centres undefined),2%,-7,17,-15,/,
Cn1nnnc1SCC(=O)Nc1ccccc1Br,/,-7,/,/,-0.6,
CC(C)C1=NN2C(=N)CC(=O)N=C2S1,-4%,1,10,-1,-1.1,
COc1ccccc1CCNC(=O)CNC(=O)c1ccc2ccccc2c1,/,3,/,/,2.7,
O=C(c1ccco1)N1CCN(Cc2cc(=O)c(OCc3cccc(F)c3)co2)CC1,/,-5,/,/,0.0,
O=C(NCC1CCCO1)c1ccc(Br)o1 (centres undefined),-1%,5,3,/,-1.5,
O=C1CN=C(c2ccc(Br)cc2)c2c(sc3c2CCCC3)N1CCN1CCCCC1,8%,-3,-16,/,4.2,
O=C(Nc1ccc(NC(=O)c2cccs2)cc1)c1ccc2c(c1)OCCO2,/,6,/,/,-3.7,
CC1=CC(C)(C)Nc2ccc(OC(=O)CN3C(=O)CCC3=O)cc21,-5%,-6,-33,10,-154,
Cc1ccc(NC(=O)c2cc(-c3ccc(C)c(C)c3O)n[nH]2)cc1C,/,5,/,/,-1.7,
N#CCC(=O)N/N=C\c1cccc(OC/C=C/c2ccccc2)c1,/,0,/,/,21,
Cc1ccc(C(=O)NCCC(=O)Nc2ccccc2C)cc1,/,-6,/,/,-2.3,
NS(=O)(=O)c1ccc(NC(=S)N2CCN(S(=O)(=O)c3ccc(F)cc3)CC2)cc1,0%,-8,0,-20,-0.4,

# Ordered by count of non-hydrogen atoms (largest number first): part of the list above.
SMILES,Mtb growth,Mtb bLac sens,Arbovirus inh,YopH PTP inh,RecA splice inh,others
C[C@H](NC(=O)c1nc[nH]c1C(=O)NC1CCNCC1)C(=O)OC(C)(C)C,/,-5,/,/,-0.3,
Cc1ccc(NC(=O)c2cc(-c3ccc(C)c(C)c3O)n[nH]2)cc1C,/,5,/,/,-1.7,
CC1=CC(C)(C)Nc2ccc(OC(=O)CN3C(=O)CCC3=O)cc21,-5%,-6,-33,10,-154,
Cc1ccc(C(=O)NCCC(=O)Nc2ccccc2C)cc1,/,-6,/,/,-2.3,
CC(=O)Oc1c(-c2ccc(Br)o2)oc2ccccc2c1=O,/,96,/,/,-62,
O=C(NCC1CCCO1)c1ccc(Br)o1 (centres undefined),-1%,5,3,/,-1.5,
CC(C)C1=NN2C(=N)CC(=O)N=C2S1,-4%,1,10,-1,-1.1,

# Next section:
SMILES,Mtb growth,Mtb bLac sens,Arbovirus inh,YopH PTP inh,RecA splice inh,others
CC(C)NC(=O)COC(=O)/C=C/c1ccc(F)cc1,-5%,7,-4,-20,-1.8,
Cc1ccc([N+](=O)[O-])cc1/C=N/Nc1nnnn1-c1ccccc1,5%,7,-2,-6,-1.8,
CC(=O)Nc1nc(N2C(=O)c3ccccc3C2=O)n(-c2ccccc2)n1,-2%,6,-4,17,0.6,
Cc1cc(C)n(C2CC(=O)N(c3ccc(C)c(Cl)c3)C2=O)n1 (centres undefined),1%,-3,/,/,/,
Cc1ccccc1C(=O)Nc1ccc2c(c1)OCCO2,/,0,/,/,-3.0,
COc1ccc2cc(CN(C(=O)Nc3ccccc3OC)C3CCCC3)c(=O)[nH]c2c1,4%,-2,-38,-26,3.6,
CCCCn1nnc(NC(=O)Cc2ccc(Cl)cc2)n1,21%,-9,-4,37,-1.9,
Cc1ccc(C2/C(=C(/O)c3cnn(-c4ccccc4)c3C)C(=O)C(=O)N2CCCN2CCOCC2)o1 (centres undefined),3%,-2,/,/,0.3,
Cn1c(CCNC(=O)c2ccccc2F)nnc1SCc1nc2ccccc2c(=O)[nH]1,-19%,-1,14,-44,-0.3,
O=C1NCCCN1Cc1ccc(Cl)cc1,/,5,/,/,0.3,
COc1ccccc1CC(=O)Nc1cccc(C)n1,-1%,-2,-2,/,-1.1,
CCn1c(N2CCN(S(=O)(=O)c3ccc(OC)cc3)CC2)nc2ccccc21,/,0,/,/,2.6,
CC1CC(C)CN(CCCNC(=O)CCNC(=O)Cn2cnc3ccccc3c2=O)C1 (centres undefined),/,3,/,/,3.5,
CC(C)C(=O)Nc1ccc(NC(=O)CCc2ccccc2)cn1,6%,-18,-4,/,-0.2,
CCCCOc1ccc(S(N)(=O)=O)cc1,-4%,-1,8,-34,-1.6,
CCOC(=O)c1cc(-c2csc(COc3ccccc3Cl)n2)on1,<0.2µM*,100,/,/,3.3,
CCN(CC)S(=O)(=O)c1ccc(C(=O)Nc2ccc3c(c2)OCCO3)cc1,4%,-16,-6,-4,1.8,
CC1CN(c2ccccc2)CCN1Cc1nc(Cc2ccccc2)no1 (centres undefined),2%,-1,1,/,-0.7,
Cc1ccccc1OCC(=O)N/N=C/c1ccco1,-2%,0,7,-24,1.8,
Cc1csc2nc(CNS(=O)(=O)c3ccc4c(c3)CCCC4)cn12,-3%,-4,-2,-26,0.6,Arbovirus inh repeat=0
Cc1ccc(C)n1-c1ncn[nH]1,-7%,-6,0,-24,1.2,
CCOC(=O)CNC(=O)C1Cc2ccccc2CN1S(=O)(=O)c1cccs1 (centres undefined),2%,-8,-4,/,1.9,
O=C(O)CCN1C(=O)c2ccc(NC(=O)Cc3ccc(Cl)cc3)cc2C1=O,-4%,-1,3,/,-1.8,
CC(CN(C)Cc1nc(Cc2cccc(C(F)(F)F)c2)no1)CN1CCCC1 (centres undefined),-4%,2,-2,/,0.0,
COc1ccccc1NC(=O)Cc1nnc(SCC(=O)NC2CCCCC2C)n1C (centres undefined),/,-3,/,/,3.7,
# Going on with the list:
SMILES,Mtb growth,Mtb bLac sens,Arbovirus inh,YopH PTP inh,RecA splice inh,others
Cc1cc(C)n(CC(=O)NCc2ccccc2)c(=O)c1C#N,/,1,/,/,0.1,
CCN1CCc2c(sc(NC(=O)C3CCCCC3)c2C(=O)OC)C1,/,8,/,/,-4.7,
Cc1cc(N)n2nc(-c3ccc(C(C)(C)C)cc3)cc2n1,27%,69,23,-5,-2.4,
O=C(CSc1nc2ncccc2[nH]1)Nc1c(F)cc(F)cc1Br,/,-8,/,/,0.6,
CC(=O)c1c(C)c2c(n1CCN(C)C)CCCC2,-11%,-8,0,-14,-1.1,
COc1ccc(S(=O)(=O)NCCSCc2ccccc2C)cc1Br,-11%,9,-12,-29,7.7,
Cc1ccc(C(=O)COC(=O)CNS(=O)(=O)c2ccccc2)cc1[N+](=O)[O-],-10%,26,-3,-15,2.8,
CCCC(=O)Nc1cccc(Oc2ccc3c(c2)C(=O)NC3=O)c1,/,-2,/,/,-0.8,
CCc1nn(CC(=O)N2CCC(C(N)=O)CC2)c(=O)c2cc3occc3n12,/,-1,/,/,-0.8,
Cc1ccc(CN2CCN(Cc3ccccc3)C(CCO)C2)s1 (centres undefined),2%,4,-1,/,-0.5,
CCN(CC)CCn1c(=N)n(CC(O)COc2ccccc2)c2ccccc21 (centres undefined),16%,-11,/,/,9.0,
O=C(O)c1nccnc1C(=O)Nc1ccc(Cl)cc1Cl,/,0,/,/,-2.3,
CC(C)N1CC(C(=O)O)CC1=O (centres undefined),-3%,8,-3,-15,1.2,
COc1ccc(N2CCOCC2)c(NC(=O)c2cccnc2)c1,/,-13,/,/,-1.1,
CCCc1nc2sc3c(SCC(=O)NCc4ccco4)ncnc3c2c2c1CCC2,-7%,84,15,-34,5.1,Arbovirus inh repeat=-7
